D2 ag = human D2 receptor agonism in beta-arrestin assay | actives 0.084% (n = 360,000) | activation, % (concentration not given with the values) | DiscoveRx PathHunter D2 beta-arrestin, luminescence, 90 min; 100% = 57 uM dopamine signal | P14416; in the data active = activation above about 40%; inconclusive = about 15% to 40%; inactive = below about 15%; also: compound concentration not given in the record; the text of the record calls up to 30% inactive
Target sequence (P14416 whole entry, looked up): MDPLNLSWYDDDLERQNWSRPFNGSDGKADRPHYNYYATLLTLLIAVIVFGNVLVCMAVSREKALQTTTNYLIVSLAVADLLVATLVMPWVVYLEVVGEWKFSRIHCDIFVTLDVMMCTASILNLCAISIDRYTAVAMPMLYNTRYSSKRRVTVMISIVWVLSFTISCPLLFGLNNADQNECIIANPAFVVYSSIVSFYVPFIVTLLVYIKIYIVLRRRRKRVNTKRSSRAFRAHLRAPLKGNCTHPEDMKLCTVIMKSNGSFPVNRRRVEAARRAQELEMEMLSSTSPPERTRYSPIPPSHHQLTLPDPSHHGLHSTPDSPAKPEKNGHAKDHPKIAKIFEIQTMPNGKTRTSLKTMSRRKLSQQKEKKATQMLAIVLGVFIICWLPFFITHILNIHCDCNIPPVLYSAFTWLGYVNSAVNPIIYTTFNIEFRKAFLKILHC
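DiscoveRx PathHunter D2 beta-arrestin cells (2,100/well) attached overnight, then compound-stimulated 90 min at 37 C in HBSS/10 mM HEPES/0.1% Tween-20 buffer; beta-galactosidase complementation read by luminescence after 1 h at ambient temperature. Dopamine 57 uM final (EC100) as control.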
TRPML1 ag = agonists of human TRPML1 channel; Q9GZU1; TRPML1-expressing cells, Ca2+ dye fluorescence, FDSS; host cell line not named in the record; reference of the full effect not given here; activation, % (test concentration not listed); actives 0.12% (n = 410,000); AID 624414; in the data active = activation above about 50%; inconclusive = about 30% to 50%; inactive = below about 30%; also: 0% is about no effect; the text of the record puts the active cut at 80%
Target sequence (Q9GZU1 whole entry, looked up): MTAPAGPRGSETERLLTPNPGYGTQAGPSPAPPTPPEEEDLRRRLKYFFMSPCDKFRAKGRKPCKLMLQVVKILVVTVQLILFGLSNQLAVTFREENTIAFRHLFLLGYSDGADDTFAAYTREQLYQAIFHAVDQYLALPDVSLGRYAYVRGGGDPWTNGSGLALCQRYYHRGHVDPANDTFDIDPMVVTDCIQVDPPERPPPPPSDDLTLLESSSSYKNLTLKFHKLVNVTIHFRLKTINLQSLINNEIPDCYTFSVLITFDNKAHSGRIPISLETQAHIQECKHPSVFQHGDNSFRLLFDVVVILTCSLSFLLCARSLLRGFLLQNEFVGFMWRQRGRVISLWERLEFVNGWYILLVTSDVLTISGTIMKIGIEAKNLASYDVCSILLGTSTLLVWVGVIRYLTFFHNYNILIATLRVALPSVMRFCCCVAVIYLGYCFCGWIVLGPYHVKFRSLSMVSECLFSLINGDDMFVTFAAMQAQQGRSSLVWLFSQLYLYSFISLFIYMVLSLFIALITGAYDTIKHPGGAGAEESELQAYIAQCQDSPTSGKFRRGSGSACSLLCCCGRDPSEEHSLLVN
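In this qHTS format, compounds were pin-transferred onto Ca8-dye-loaded TRPML1-DL cells induced with Tet overnight, and intracellular Ca2+ fluorescence was recorded kinetically for 110 s after a 10 s baseline. A subsequent 4uM final 54-4 (EC80) addition followed by a second 110 s read served as the antagonist phase.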
Six1-Eya2 inh = Six1/Eya2 interaction inhibition. AlphaScreen GST-Six1/His-Eya2 binding, biochemical; active compounds read low; control for the full effect not named in the record. actives 0.56% (n = 360,000). Q15475+O00167. AID 651725. activity change, % (test concentration not listed); in the data active = activity change below about -65%; inconclusive = about -30% to -65%; inactive = above about -30%; also: % is scaled to controls: 0 for no effect and ±100 for the full control effect
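AlphaScreen luminescence read after one hour at 37 °C in darkness. Pin-transferred compounds met GST-Six1 and His-Eya2 protein (5X stock 250 nM/500 nM) plus glutathione donor and Ni-chelate acceptor beads (5X, 50 ug/mL).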
PINK1 modulator = modulators of PINK1 expression; AID 624263; actives 0.2% (n = 410,000); PINK1 immunofluorescence, high-content cytometry, 24 h; Potency, µM (doses to about 76.6 µM), for the others: at the top dose activation (PINK1 increase), actives largely listed as activators; active = well fitted activation curve with a large enough effect; inconclusive = small, poorly fitted or top-dose-only effect; inactive = flat fitted curve, though single readings scatter; cell line not stated here;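 also: potency is read from the fitted curve at half-maximal effect; % of control where 0% means no effect; nearly all actives have a fitted effect of over 65% in size; a mitochondrial uncoupler was the plate control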
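PINK1 protein level read as immunofluorescence by microplate cytometer in a fixed, stained stable cell line after 24 h exposure to five compound concentrations, with CCCP as control.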
TRPML1 blocker = inhibitors of human TRPML1 channel | Q9GZU1 | TRPML1-inducible cells, Ca2+ dye fluorescence, FDSS; active compounds read low; inhibition of EC80 agonist-evoked calcium signal | activity change, negative = inhibition, % (no concentration beside the values) | actives 0.02% (n = 390,000) | AID 624415; in the data active means activity change below about -50%; inconclusive means about -30% to -50%; inactive means above about -30%;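 also: stimulus is agonist 54-4 at its EC80 concentration; % is scaled to controls: 0 for no effect and ±100 for the full control effect; compound concentration not given in the record; the text of the record puts the active cut at -80%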
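Calcium fluorescence in TRPML1-DL cells induced overnight with Tet: a 110 s read after compound pin addition, then a 110 s antagonist read after challenge with 54-4 at 4 uM final (EC80).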
CtBP-E1A inh = CtBP/E1A binding inhibition; AID 651724; actives 0.49% (n = 340,000); activity change, % (no concentration beside the values); AlphaScreen GST-E1A/His-CtBP binding, 1536-well; active compounds read low; control for the full effect not named in the record; in the data active means activity change below about -65%; inconclusive means about -30% to -65%; inactive means above about -30%; also: % is scaled to controls: 0 for no effect and ±100 for the full control effect
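In 5 uL wells, 23 nL compound meets equimolar GST-E1A and His-CtBP (5X stock 125 nM each) for 2 h, 37 °C. Beads (5X, 50 ug/mL) then 1 h, 37 °C, dark.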
* hit, by the source's call; ? = inconclusive; . = not tested or not shown; & = joins results of further samples; [ ] = remark or other dose.

The line under a structure holds: D2 ag, TRPML1 ag, Six1-Eya2 inh, PINK1 modulator, TRPML1 blocker, CtBP-E1A inh
COc1cc(C(C)=O)ccc1OCCCN1CCC(Cc2ccccc2)CC1
 : -1.8, 0.1, -5.8, 0.6%, 6.7, -1.1
CC[C@H]1C(O)C[C@H]2CCN3C(=O)CCC[C@H]1[C@H]23 (stereo not given in full)
 : -0.5, 0.0, 3.6, -0.5%, -8.4, 2.2
CCCN1Cc2cccc(C(=O)Nc3ccc(-c4nc5ccccc5[nH]4)cc3)c2C1=O
 : -1.8, 0.1, -3.5, 19.3%, 16.4, 17.7
Cc1cccc(C(=O)OCC(=O)c2ccc(CC(=O)N3CCOCC3)s2)c1C
 : -2.8, -0.3, -7.4, -0.1%, -3.8, .
COc1nc(SC)nc(Cl)c1Cc1ccc(OC(C)C)cc1
 : -2.1, 1.4, 47.0, 16.2%, -7.1, -1.7
CCCC1CCC(c2ccc(C(=O)NN)cc2)CC1 (stereo not given)
 : -1.1, -0.4, -8.4, 5.4%, 10.2, 0.4
Cc1cc(C)n(CC(O)COCc2ccco2)n1 (stereo not given)
 : -2.1, 0.5, 2.5, -0.5%, 13.2, 0.3
O=C(CN1C2=NCCCN2c2ccccc21)c1ccc(Br)s1
 : -2.1, 0.4, 1.0, -0.5%, 13.1, -2.8
COc1ccc(/C=N/NS(=O)(=O)c2ccc(C)cc2)cc1OC(=O)c1ccc(C)cc1
 : -1.2, 2.5, -10.9, 1.5%, 3.8, -2.5
COc1ccc(NC(=O)C2C3C=CC(C3)C2C(=O)NCc2ccco2)cc1 (stereo not given)
 : -3.1, -0.4, 1.7, 14.3%[38.3 µM], -7.2, -2.0

Single records (already shown).
Cc1cccc(C(=O)OCC(=O)c2ccc(CC(=O)N3CCOCC3)s2)c1C in the list: D2 ag = -2.8; TRPML1 ag = -0.3; Six1-Eya2 inh = -7.4; PINK1 modulator = -0.1%; TRPML1 blocker = -3.8; CtBP-E1A inh = .
CCCN1Cc2cccc(C(=O)Nc3ccc(-c4nc5ccccc5[nH]4)cc3)c2C1=O in the list: D2 ag = -1.8; TRPML1 ag = 0.1; Six1-Eya2 inh = -3.5; PINK1 modulator = 19.3%; TRPML1 blocker = 16.4; CtBP-E1A inh = 17.7

The listing continues.
The line under a structure holds: D2 ag, TRPML1 ag, Six1-Eya2 inh, PINK1 modulator, TRPML1 blocker, CtBP-E1A inh
COc1ccc(C2/C=C\CN(C(=O)C3CC3)[C@H](Cc3ccccc3)C(=O)N2Cc2ccc(F)cc2)cc1 (stereo not given in full)
 : -2.1, 2.3, -7.5, 6.2%, 60.4, -14.7
COc1ccccc1C(=O)Nc1nnc(CCc2ccccc2)s1
 : -5.1, 1.9, 5.6, 2.9%, 2.8, -7.0
O=C1N[C@@H](Cc2ccccc2)COC(=O)[C@@H](Cc2ccc(F)cc2)CC/C=C/C[C@H]1CC(=O)N(CCO)Cc1ccccc1
 : 3.2, 0.0, -4.4, 10.4%, 22.7, -1.7
O=S1(=O)N=C(Nc2nc3c(s2)CCCC3)c2ccccc21
 : -3.3, -0.9, 2.9, -0.6%, 16.4, -1.1
Cc1nn(C(CC(=O)O)C(=O)O)c(C)c1Br (stereo not given)
 : 0.4, -0.2, 1.6, ., 5.3, 4.5
O=C(Nc1ccccc1)Nc1cccn(Cc2c(F)cccc2Cl)c1=O
 : 5.4, 0.3, -13.5, 3.5%, -2.5, .
O=C(Nc1ccc(Cl)cc1)c1nc[nH]c1C(=O)N1CCN(c2ccccc2)CC1
 : -2.3, -0.6, -1.6, 2.5%, -10.2, -0.3
Cc1csc(C(C#N)C(=O)c2ccc(S(=O)(=O)N3CCCC3)cc2)n1 (stereo not given)
 : -4.2, 0.7, -9.2, 3.5%[38.3 µM], -23.9, -9.6
Cc1ccc(C)c(N2CCN(C(=O)CCc3nc(-c4ccccc4Br)no3)CC2)c1
 : 2.4, -0.9, 1.1, 8.1%, 17.1, -0.6
CC(=O)c1cc(C#N)c(NCc2cc(-c3ccccc3)no2)nc1C
 : 0.7, -0.1, 3.8, 3.1%, 0.9, .
O=C(COC(=O)c1cc(=O)[nH]c2ccccc12)NCc1cccc(Cl)c1
 : 1.9, 0.1, -15.4, 2.0%, 7.6, 22.6
CCn1c(=O)cc(N2CCCCC2)[nH]c1=O
 : -4.4, -1.3, 16.2, 0.3%, -1.8, 15.8
CSc1nc(-c2ccccc2)cc(C)c1C#N
 : -6.8, 0.1, 44.3, 0.4%, 6.9, 13.9
CCc1ccc[n+](-c2nc([O-])sc2C=O)c1
 : 0.4, 0.2, 8.6, 2.5%, -0.5, 2.8
COc1ccc(NC(=O)NC2CCN(C(C)C)CC2)c(OC)c1
 : -0.3, 0.0, -2.5, ?, 1.7, 3.5
O=C(Nc1ccccn1)c1sc2cccc(F)c2c1Cl
 : -2.4, -0.8, 1.0, 8.5%, 15.1, 0.0
CCC(=O)N1c2ccc(S(=O)(=O)NCCc3ccccc3)cc2CC1C (stereo not given)
 : 1.3, -0.2&-0.2, -0.4, -0.2%&0.4%, 3.5&11.1, -2.7
Cc1cc(C)c(C(=O)CC(=O)c2ccccc2Cl)c(O)c1
 : -6.6, -0.2, 3.0, 10.8%, -1.5, 5.0
COc1ccc(C(C)=O)cc1CSc1ncccn1
 : 5.8, -0.3, 1.2, 1.2%, -20.3, 0.0
Cc1nn(C)c(C)c1/C=N/N=C1\CCC2C3CCc4cc(O)ccc4C3CCC12C (stereo not given)
 : -2.5, -0.7, -12.1, 0.8%, -1.8, -12.3
C=CCn1c(CCNC(=O)c2cccs2)nnc1SCC(=O)Nc1cccc(C(C)=O)c1
 : -1.2, -0.7, -0.1, -0.9%, 0.8, 1.6
CN(CC(=O)NC1CCN(Cc2ccccc2)CC1)S(=O)(=O)c1ccc2c(c1)c(=O)n(C)c(=O)n2C
 : -3.6, 0.7, 3.6, -0.4%, -6.3, -1.0
CSc1nnc(Cc2cc(=O)[nH]c(=O)[nH]2)n1-c1cc(C)ccc1C
 : -1.6, -0.5, 0.9, -0.9%, 6.6, -3.2
O=C(c1ccc(O)cc1)c1ccc(O)cc1O
 : 0.1, -0.7, -2.4, -0.7%, 13.1, 1.3
O=C(COC(=O)Cc1ccsc1)NCc1ccc(Cl)cc1
 : -2.3, 2.1, -7.9, -0.4%, 0.7, -0.4
O=C(Cn1nc(C(F)F)cc1C1CC1)NCCC1=CCCCC1
 : -6.2, 1.4, 9.9, ., 27.3, 0.0
CC(C)(C)OC(=O)N1CCC(c2c(C(=O)N3CCN(Cc4ccccc4)CC3)cnn2-c2cccc(Cl)c2)CC1
 : ., 92.3*, ., -1.1%, -26.0, .
O=C(O)Cn1c(SCCOc2ccccc2)nc2ccccc21
 : 0.6, 1.2, 2.2, ?, -5.8, 0.9
CC1CCC(NC(=O)CCS(=O)(=O)c2ccc3c(c2)NC(=O)CS3)CC1 (stereo not given)
 : -2.2, -0.7, 3.5, 0.2%, -11.8, 7.6
CCCOc1ccc(C2C(=O)N(C3CCC(C)CC3)CC(=O)N2CCc2ccccc2)cc1OC (stereo not given)
 : ., 0.6, ., 2.0%, 9.9, .
COc1ccc2c(c1)cc(C(=O)N[C@H](C(=O)N1CCC(C(=O)O)CC1)C(C)C)n2C
 : 8.1, 0.3, 5.3, -0.7%, -8.1, 6.8
Cc1noc(C)c1NC(=O)N(C)C[C@H]1Oc2c(NS(=O)(=O)c3cccs3)cccc2C(=O)N([C@H](C)CO)C[C@@H]1C
 : -1.2, -0.6, -3.0, 0.7%, 54.5, -2.6
Cc1cc(C(=O)CSc2nc3ccccc3c(=O)[nH]2)c(C)n1CC1CCCO1 (stereo not given)
 : 2.5, 0.0, -5.9, 0.9%, -13.6, -0.4
CC(CNCCCn1ccc(NC(=O)OCc2ccccc2)nc1=O)c1ccccc1 (stereo not given)
 : 0.2, 1.4, -0.6, 0.1%, 71.2, -1.0
COc1ccc2oc(=O)c(C(=O)NCCc3c(C)[nH]c4ccc(Br)cc34)cc2c1
 : ., 3.3, ., 2.1%, -3.1, .
O=C(Nc1ncccn1)c1ccc([N+](=O)[O-])cc1
 : -2.5, 1.7, 0.1, -1.4%, 11.4, .
O=C(COc1ccc([N+](=O)[O-])cc1Cl)NCC1CCCO1 (stereo not given)
 : -9.5, 0.2, 0.5, 2.4%, -4.2, -13.8
CCc1cccc2cc3c(N)c(C(=O)Nc4ccc(S(=O)(=O)N5CCCC5)cc4)sc3nc12
 : -3.5, ?, -11.9, 11.0%, -6.6, -2.3
Cc1cc(C)nc(SCCS(=O)(=O)Cc2ccccc2)n1
 : 2.1, 0.2, 3.4, -1.1%[38.3 µM], 19.3, 2.1
Cc1ccc(NC(=O)Nc2nc3ccccc3s2)cc1NC(=O)Nc1nc2ccccc2s1
 : 4.6, -0.3, 1.2, 1.8%, -6.5, .
Cc1cc([N+](=O)[O-])nn1CC(=O)Nc1ccccn1
 : -1.9, 1.0, -0.7, -1.3%, -5.6, 8.5
CC(C)C(C(=O)NCc1ccco1)N(C(=O)CNS(=O)(=O)c1ccc(Cl)cc1)C1CCCC1 (stereo not given)
 : -3.0, -1.0, -0.8, 1.8%, -14.7, -0.5
CC1CN(c2nc3c(c(=O)n(C)c(=O)n3C)n2Cc2c(Cl)cccc2Cl)CC(C)O1 (stereo not given)
 : -1.8, -0.7, -4.5, 1.5%, 1.8, -3.6
Cc1ccc(OCC(=O)NCCCNC(=O)c2ccccn2)cc1
 : -3.5, 0.0, 8.7, 1.1%, 0.4, 2.5
Cc1csc(NC(=O)CSc2ncn(-c3ccccc3)n2)n1
 : -2.4, 0.2, -1.5, -1.1%, 8.6, -0.9
Cc1ccc(-c2nc3c(c(SCC(=O)N(C)c4ccccc4)n2)Cc2c(CO)cnc(C)c2O3)cc1
 : ., -0.7, ., -0.7%, 13.6, .
CCOc1ccc(-c2csc(NC(=O)c3ccc(S(=O)(=O)N4CCc5ccccc5C4)cc3)n2)cc1
 : -1.6, 0.3, -3.3, 1.9%, 7.5, 0.7
O=C(C[C@H]1C[C@H](C(=O)N2CCOCC2)[C@@]2(CCC3CCCC3)c3[nH]c4cc(-c5ccco5)ccc4c3CCN2C1=O)NCCC1=CCCCC1
 : -7.5, -0.9, -12.0, 2.1%, -5.6, -8.8
Cc1cc(S(=O)(=O)Nc2cc3c(cc2C)n(C)c(=O)c(=O)n3C)ccc1F
 : ., 1.3, ., -0.9%, 19.6, .
Cc1ccc(-n2c(-c3cccc(C)c3)n[nH]c2=S)cc1
 : 2.1, 0.4, 3.3, -2.9%[38.3 µM], 15.9, -6.1
CCn1c(C)nc([N+](=O)[O-])c1Sc1ccc(F)cc1
 : -3.4, -0.9, -3.3, 1.1%, 1.5, .
Cc1ccc(S(=O)(=O)N2CCN(C(=O)c3c(-c4ccccc4)noc3C)CC2)cc1
 : -2.9, 0.6, -1.0, -1.0%, -12.8, 3.3

Source: PubChem BioAssay
